gsp antagonist: antagonists of gsp mutant (McCune-Albright syndrome); gsp-mutant cells, cAMP HTRF, 30 min; control for the full effect not named in the record; Potency, µM (highest dose often 76.9 µM), inactives show at the highest dose activity change, negative = inhibition, most hits filed as inhibitors; 0.4% of 340,000 active; AID 624288; active = falling curve of any shape with a large fitted effect; inconclusive = falling curve, mostly with a smaller effect; inactive = flat or rising curve; cell line not stated here;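 further: intracellular cAMP measured with PDE inhibitor Ro 20-1724 present during compound exposure; potency means the concentration at half of the fitted maximal effect; on the % scale 0 is the no-effect control and ±100 the full control effect; nearly all actives have a fitted effect of over 65% in size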
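HTRF cAMP read-out (cAMP-d2 plus anti-cAMP antibody-K in lysis buffer, 30 min RT). Before lysis, cells are exposed to compounds with […] for 30 min at 37C in DPBS containing Ca/Mg, BSA and Tween 20.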
ClpP mod: qHTS Assay for Activators of ClpP; ATP-dependent Clp protease proteolytic subunit (Bacillus subtilis (strain 168)), P80244; purified B. subtilis ClpP, FRET peptide cleavage, 20 min; Potency, µM (doses to about 57.5 µM), for the others: at the top dose activity change, negative = active; 1.9% of 340,000 active; AID 651965, 2013; active = well fitted falling curve with a large enough effect; inconclusive = small, poorly fitted or top-dose-only effect; inactive = no such curve, though single readings can be large or run the other way; further: potency means the concentration at half of the fitted maximal effect; the source files actives as falling curves though it sought activators and does not explain the sign; nearly all actives have a fitted effect of over 65% in size; many hits overshoot -100%
Target sequence (P80244 whole entry, looked up): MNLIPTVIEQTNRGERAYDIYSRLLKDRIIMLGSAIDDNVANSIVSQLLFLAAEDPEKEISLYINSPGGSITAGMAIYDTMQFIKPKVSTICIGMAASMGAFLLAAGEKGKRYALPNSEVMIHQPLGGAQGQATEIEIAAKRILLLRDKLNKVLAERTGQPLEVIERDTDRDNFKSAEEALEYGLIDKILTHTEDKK
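Purified B. subtilis ClpP, 10 microg/mL final in Tris/HCl pH8 with KCl, BSA, glycerol and Tween-20, cleaved an Abz/nitrotyrosine-quenched decapeptide. Fluorescence (ex 320, em 430) was read at 0 and 20 min at room temperature. Delta was normalized to 5.8 microM ADEP and DMSO/no-enzyme controls.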
gsp agonist: agonists of gsp mutant (McCune-Albright syndrome) | 0.13% of 340,000 active | AID 624287 | gsp mutant cells, cAMP HTRF, 30 min; control for the full effect not named in the record | Potency, µM (doses to about 76.9 µM), inactives show at the top dose activation (cAMP increase), hits mostly activators; active = well fitted activation curve with a large enough effect; inconclusive = small, poorly fitted or top-dose-only effect, or another doubt; inactive = no such curve, though single readings can be large or run the other way; cell line not stated here;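 further: phosphodiesterase inhibitor Ro 20-1724 added with compounds to block cAMP breakdown; potency means the concentration at half of the fitted maximal effect; nearly all actives have a fitted effect of over 60% in size; about a fifth of the inactives were tested at one dose only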
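Cells in DMEM/10% FBS with G418 were pretreated with compounds in DMSO plus […] (300 uM stock) for 30 min at 37C. cAMP was measured by HTRF (cAMP-d2 plus anti-cAMP antibody-K) after 30 min at room temperature.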
Sfp PPTase inh: Sfp phosphopantetheinyl transferase inhibition; Q9F4F7; Biochemical Sfp PPTase activity, qHTS; Potency, µM, for the others: max response, negative = inhibition, hits mostly inhibitors; 3.5% of 310,000 active; active means well fitted inhibition curve with a large enough effect; inconclusive means small, poorly fitted or top-dose-only effect, or another doubt; inactive means no such curve, though single readings can be large or run the other way;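 further: the enzyme is Sfp with the accession as filed and its product quenches rhodamine fluorescence; potency means the concentration at half of the fitted maximal effect; 0% = enzyme reaction without inhibitor and -100% = no enzyme wells; top concentration of the series not given in the record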
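Fluorescence-quenching assay: 15 nM Sfp-PPTase preincubated 15 min at room temperature with compound, then 5 uM rhodamine-CoA and 12.5 uM BHQ-2-labelled YbbR peptide added. Fluorescence (ex 525/em 598 nm) read at start and after 30 min; difference gives rate.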
Menin MLL FP FL: inhibitors of human menin-MLL interaction, wild-type MLL peptide; Fluorescence polarization, fluorescein-MLL peptide displacement from menin; FP activity change, % at 61.4 µM; 290,000 tested, under 10 active; inconclusive = falling polarisation curve, or a change in total fluorescence; inactive = total fluorescence flat and polarisation flat or rising; no compound was filed as active; the % refers to the polarisation; negative = inhibition;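 further: % of control where 0% means no effect; inhibitors lower the polarisation; unlabelled MLL peptide was the positive control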
TRPV1 PAM: human TRPV1 potentiation. Q8NER1. TRPV1-expressing cells, Fluo-8 calcium influx, capsaicin EC20 potentiation; host cell line not named in the record; control for the full effect not named in the record. potentiation, % at 8.33 µM. 0.02% of 320,000 active. AID 540277; active means potentiation above 80%; inconclusive means 30% to 80%; inactive means below 30%; further: 0% is about no effect
Target sequence (Q8NER1 whole entry, looked up): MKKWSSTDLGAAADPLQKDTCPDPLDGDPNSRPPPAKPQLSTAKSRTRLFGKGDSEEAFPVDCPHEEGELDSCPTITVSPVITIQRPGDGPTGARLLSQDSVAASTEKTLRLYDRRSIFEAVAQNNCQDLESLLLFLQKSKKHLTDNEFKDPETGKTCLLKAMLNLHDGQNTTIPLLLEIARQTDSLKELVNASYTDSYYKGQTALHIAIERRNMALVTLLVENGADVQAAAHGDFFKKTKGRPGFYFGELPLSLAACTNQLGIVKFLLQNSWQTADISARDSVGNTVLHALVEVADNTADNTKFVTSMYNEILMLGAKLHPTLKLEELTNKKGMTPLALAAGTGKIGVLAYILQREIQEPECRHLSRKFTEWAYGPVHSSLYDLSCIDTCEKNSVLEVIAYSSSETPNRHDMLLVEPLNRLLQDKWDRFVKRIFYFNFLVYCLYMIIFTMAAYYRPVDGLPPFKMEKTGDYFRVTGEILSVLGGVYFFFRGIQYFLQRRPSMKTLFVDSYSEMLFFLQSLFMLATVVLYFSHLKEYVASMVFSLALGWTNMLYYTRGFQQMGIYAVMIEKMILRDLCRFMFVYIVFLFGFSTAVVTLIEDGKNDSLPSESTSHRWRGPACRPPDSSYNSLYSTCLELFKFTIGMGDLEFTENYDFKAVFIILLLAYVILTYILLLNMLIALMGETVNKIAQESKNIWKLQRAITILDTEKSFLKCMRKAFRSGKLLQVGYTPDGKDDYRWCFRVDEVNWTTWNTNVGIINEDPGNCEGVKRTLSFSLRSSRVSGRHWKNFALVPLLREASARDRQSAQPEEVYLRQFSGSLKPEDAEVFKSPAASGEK
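Fluo-8 calcium influx in TRPV1-expressing cells, kinetic read (ex 480/em 520 nm). Compound added and read 3 min for agonist activity, followed by capsaicin at EC20 final and 2 min further read for enhancement.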
CtBP-E1A blk: CtBP/E1A binding inhibition. 0.49% of 340,000 active. activity change, % (no concentration beside the values). AlphaScreen GST-E1A/His-CtBP binding, 1536-well; stronger effect = lower value; control for the full effect not named in the record; in the data active means activity change below about -65%; inconclusive means about -30% to -65%; inactive means above about -30%; further: on the % scale 0 is the no-effect control and ±100 the full control effect; compound concentration not given in the record
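AlphaScreen with 125 nM GST-E1A and 125 nM His-CtBP (5X stocks) in Tris pH 8.0, 300 mM NaCl, BSA, Tween 20, TCEP. Compounds preincubated 2 h at 37 deg C, then glutathione donor/nickel acceptor beads added for 1 h at 37 deg C in dark.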
Active calls of the source: *; ? = inconclusive; . = not tested or not shown; [ ] = remark or other dose.

Structure | TRPV1 PAM | CtBP-E1A blk | gsp agonist | Menin MLL FP FL | gsp antagonist | Sfp PPTase inh | ClpP mod
COc1ccc(-n2ccnc2CN2CCCC(CO)(Cc3cccc(OC)c3)C2)cc1 (stereo not given) | -3.6 | -8.2 | 4.9%[15.4 µM] | -4.6 | -21.9% | -7.1% | .
C=C1C(C(=O)N2CCN(C)CC2)C1C(=O)N1CCN(C)CC1 (stereo not given) | 11.8 | 2.1 | 1.6% | 4.6 | 5.3% | 2.6% | -0.4%
CSc1nc(C)cc(/C=C\c2ccccc2)c1C#N | ? | 25.5 | 2.0% | 4.4 | -5.8% | 18.2% | 28.2µM*
O=C1C2C3CC(C(Br)C3Br)C2C(=O)N1c1nccs1 (stereo not given) | . | . | 27.7% | . | -4.1% | . | -1.7%
Cc1ccc(OCC(=O)N2CCC(C)CC2)c([N+](=O)[O-])n1 | 0.6 | 3.5 | 2.9% | . | -12.1% | . | 0.6%
CC(=O)NCCCc1c[nH]c2ccc(Cl)cc12 | -12.1 | 4.4 | 2.2% | 2.2 | 6.1% | -6.5% | 1.9%
O=S(=O)(Nc1ccc2oc(-c3ccccc3)nc2c1)c1ccccc1 | 4.9 | -16.2 | 0.6% | -3.9 | -2.7% | -19.6% | -23.3%
O=S(=O)(NC1CCCC1)c1ccc(S(=O)(=O)NC2CCCC2)cc1 | -11.7 | 6.5 | -0.7% | 6.7 | 7.1% | 3.3% | 2.0%
CCOc1ccc(S(=O)(=O)Nc2ccc(C(=O)N3CC(C)OC(C)C3)cc2)cc1 (stereo not given) | 0.5 | 2.4 | ? | . | -5.2% | . | 5.62µM*
CCCCn1c(Cc2ccccc2)nnc1SCC(=O)Nc1cc(C)on1 | 11.0 | 1.3 | ? | -0.3 | -10.5% | 24.5% | -1.5%
S=C(Nc1ccc2cn[nH]c2c1)Nc1ccc(Cl)cc1Cl | -0.7 | . | 2.6% | 0.2 | 0.8% | 15.8µM* | -10.6%
Cc1cc(C)cc(NC(=S)NC2CC3CCCC(C2)N3C2CCCC2)c1 (stereo not given) | 18.1 | -3.1 | -19.0% | -11.0 | 11.8% | 1.1% | 0.4%
Cc1ccc(SCC(=O)NNC(=O)C2CCCCC2)cc1 | -13.6 | 1.3 | 9.0% | -2.3 | -1.9% | 6.9% | -1.0%
O=C(c1ccc(-c2ccccc2)cc1)N1CCN(c2ccccn2)CC1 | 2.0 | 1.7 | 2.6% | 2.6 | -6.7% | -7.2% | .
CC(=O)c1cccc(NC(=O)NC(C)c2ccc3c(c2)OCO3)c1 (stereo not given) | 4.9 | 2.4 | 3.6% | -2.3 | -12.0% | 13.6% | 0.3%
COc1ccc(NC(C)C(=O)Nc2ccc(C#N)cc2)cc1Cl (stereo not given) | -0.9 | -0.1 | 17.5% | -0.2 | -3.5% | -0.9% | -1.7%
Cc1cc(-c2nnc(SCC(=O)Nc3nc(-c4ccccc4)cs3)o2)no1 | 5.4 | -11.7 | 43.2% | 2.9 | 9.3% | 14.6% | 0.3%
Cc1nc(-c2coc3cc(OCC(=O)O)ccc3c2=O)cs1 | 25.4 | -2.3 | 21.5% | 3.1 | 4.7% | 17.7% | 35.5µM*
CCCCCNC(=O)C(=O)C1C(=O)Nc2ccccc21 (stereo not given) | 9.0 | -11.6 | 37.6% | 1.0 | -7.8% | 8.9% | -2.3%
OCC1(CCc2ccccc2)CCN(Cc2ccc3nsnc3c2)CC1 | -6.8 | -0.2 | -6.8%[15.4 µM] | 1.6 | 5.0% | -9.7% | .
CSc1nsc(SCC(=O)Nc2ccc(F)cc2)n1 | 2.9 | -2.3 | 9.8% | -0.5 | -5.5% | 0.4% | .
COc1ccc(S(=O)(=O)Nc2ccccc2C(=O)N2CCOCC2)cc1Cl | 11.1 | 9.4 | 1.9% | . | -1.1% | 12.9% | 2.4%
O=C1COc2ccc(C(=O)c3ccccc3C(=O)NCc3ccco3)cc2N1 | 27.7 | -5.6 | -14.5% | 1.3 | -10.6% | -27.2% | -3.4%
O=C(NCCC(=O)N1CCN(c2ccc(F)cc2)CC1)c1ccco1 | -2.1 | 0.2 | 22.3% | . | 0.6% | . | -2.2%
CNC(=O)NC(=O)COC(=O)c1n[nH]c2ccccc12 | -2.7 | -3.1 | 18.3%[15.4 µM] | 1.9 | 0.8% | 11.5% | .
COc1ccc(NC(=O)COC(=O)CCCc2c[nH]c3ccccc23)cc1OC | -14.4 | -7.9 | -16.1% | 4.3 | -0.8% | 22.9% | -0.2%
COc1ccc(NC(=O)CN(C)C(=O)c2ccc(S(=O)(=O)Nc3ccccc3C)cc2)cc1 | 2.8 | -0.2 | -54.6% | . | 5.9% | . | -0.5%
Cc1ccc(C(=O)CSc2nc(C(C)C)nc3ccccc23)cc1 | -3.2 | 1.4 | -32.9% | -1.7 | -5.3% | 39.8µM* | -0.5%
CCOc1ccc(-c2ccc(C=O)o2)c([N+](=O)[O-])c1 | -2.5 | -8.6 | 3.1% | 5.7 | -2.2% | -6.2% | -1.3%
COc1ccc2ccccc2c1C1NC(=O)c2ccccc2N1 (stereo not given) | . | 13.8 | ? | . | -2.3% | . | 14.1µM*
CCN(Cc1ccccc1)C(=O)CCc1nc(-c2ccc(C)cc2)no1 | -3.3 | 15.2 | -7.8% | -1.5 | -14.0% | -6.1% | 2.6%
O=S(=O)(Nc1cc(Cl)ccc1-n1cncn1)c1ccc(F)cc1 | -1.9 | . | 27.7% | . | -2.7% | . | 0.7%
CC(=O)C1=C(O)C(=O)N(Cc2cccnc2)C1c1ccccc1Cl (stereo not given) | -1.7 | 3.1 | ? | 1.1 | 3.7% | 7.7% | -3.8%
N#Cc1ccc(Oc2ncccn2)cc1 | . | 6.7 | -19.8% | . | 6.7% | . | .
CC1=NOC(=O)/C1=C\c1ccc(-c2ccc(Br)cc2)o1 | -1.1 | -3.6 | 3.98µM* | 16.2 | -4.1% | 44.7µM* | 1.9%
O=C(CSc1nc2cc(C(=O)O)ccc2c(=O)n1-c1ccc(F)cc1)Nc1ccc(F)c(F)c1F | 28.3 | . | -28.9% | 9.7 | -12.3% | 10.1% | -17.4%
COCCn1c(Br)nc2c1c(=O)n(C)c(=O)n2C | -6.6 | 0.0 | ? | -3.6 | 3.7% | 10.1% | .
CC(OC(=O)Cc1ccc(F)cc1)C(=O)NCc1ccc2c(c1)OCO2 (stereo not given) | -11.6 | 7.2 | 12.0%[15.4 µM] | . | 3.1% | . | 0.1%
CCCCc1cc(=O)oc2c(C)c(OCC(=O)NCc3ccccn3)ccc12 | -15.2 | . | ? | -4.4 | -15.0% | 10.3% | ?
CN(CC(=O)Nc1ccc(F)c(F)c1F)C(=O)c1nn(Cc2ccccc2)c(=O)c2ccccc12 | . | . | -24.1% | . | -24.0% | . | -0.3%
Cc1noc(C)c1S(=O)(=O)N1CCC(C(=O)NCCc2ccc(S(N)(=O)=O)cc2)CC1 | -10.3 | 6.6 | 4.3% | 3.7 | -1.5% | 20.3% | -4.5%
Cc1n[nH]c(C)c1CN(C)C(=O)c1cc(COc2ccc(F)c(F)c2)on1 | -6.5 | 6.7 | 4.7% | 3.3 | -9.1% | 17.9% | 1.5%
Cc1ccc(C)n1-n1cnc2scc(-c3cccs3)c2c1=O | -2.0 | -2.9 | 0.0% | 3.5 | 2.6% | -7.3% | -1.5%
Cc1cc(C2=CC(=O)C[C@H](c3ccc(F)cc3)C2)ccc1F | . | 4.0 | -0.1% | . | . | . | -2.3%
CC1CN(c2ccc(Oc3ccccc3)cc2)c2nc3c(c(=O)[nH]c(=O)n3C)n2C1 (stereo not given) | 28.2 | -2.8 | ? | 2.0 | 4.8% | -8.3% | 0.1%
COc1ccc(CC(=O)NNC(=O)CSc2ccc(C)cc2)cc1 | -4.0 | 13.9 | -6.3%[15.4 µM] | 0.8 | 12.1% | 15.4% | -10.6%
CC1CCN(C(=O)Cn2nc(C(F)(F)F)c3c2CCCC3)CC1 | -2.1 | 6.6 | -25.5% | 1.4 | -1.3% | 11.8% | 0.1%
CCOC(=O)CNC(=O)CSc1ccc2nnc(-c3ccc(F)cc3)n2n1 | 5.0 | -0.2 | 9.7%[15.4 µM] | 1.5 | 2.2% | 0.2% | .
CC(=O)NNC(=O)CSc1nnc(-c2ccccc2)c(-c2ccccc2)n1 | 1.7 | . | 2.2% | 0.5 | -10.9% | -17.6% | -0.8%
CCSc1nnc(NC(=O)CCc2ccccc2)s1 | . | 9.5 | -2.0% | -0.4 | 8.9% | -0.7% | 1.3%
COc1ccc(C)c2sc(N3CCCC3)nc12 | 11.6 | 2.8 | 8.0% | 0.9 | 4.9% | 6.6% | 1.7%
CCCS(=O)(=O)Nc1cc(C(F)(F)F)ccc1OCCOC | -15.2 | 2.9 | -41.0%[inhibitor] | 0.4 | -14.7% | -12.2% | 0.0%
